# Compound activity: PubChem, National Center for Advancing Translational Sciences (NCATS)
# StopGo RLuc: FMDV 2A StopGo reporter, Renilla signal; AID 1745857; HEK cells with a luciferase reporter of 2A StopGo recoding; Potency, µM (doses to about 57.5 µM), for inactives: top-dose signal change, negative = less light; actives 0.32% (n = 120,000); active means well fitted falling curve with a large enough effect; inconclusive means small, poorly fitted or top-dose-only effect; inactive means no such curve, though single readings can be large or run the other way; further: nearly all actives have a fitted effect of over 55% in size; overnight with compound
# StopGo FLuc: lowers the firefly signal of an FMDV 2A StopGo reporter; HEK cells with a luciferase reporter of 2A StopGo recoding; Potency, µM (series often up to 57.5 µM), for the others: at the top dose signal change, negative = less light; actives 0.23% (n = 120,000); active = well fitted falling curve with a large enough effect; inconclusive = small, poorly fitted or top-dose-only effect; inactive = no such curve, though single readings can be large or run the other way; further: nearly all actives have a fitted effect of over 60% in size; overnight with compound
# * hit, by the source's call; ? = inconclusive; & = joins results of further samples; [ ] = another dose, or the depositor's remark. On the % scale 0 is the no-effect control and ±100 the full control effect; potency means the concentration at half of the fitted maximal effect.
SMILES,StopGo RLuc,StopGo FLuc
Cc1nn(-c2ccccc2)c(-n2cccc2)c1C(=O)NCCCN1CCN(c2ccccc2F)CC1,-8%,21%
CC(C)=CCC/C(C)=C/CC/C(C)=C/CCC(=O)OC/C=C(\C)CCC=C(C)C,2%,-6%[11.5 µM]
CCC(CC)C(=O)Nc1nc2c(s1)CC(C)CC2 (stereo not drawn),-7%,95%[activator]
Cc1cccc(C(=O)Nc2ccc3c(c2)nc(CCn2ccccc2=O)n3C)c1,9%,141%[activator]
Cc1cccc(NC(=O)CSCc2cc(=O)n3oc(C)cc3n2)c1,-7%,14%
COc1ccccc1CC(=O)NC(c1cccs1)C1CCCC1 (stereo not drawn),27%,-5%
CC(=O)c1ccc(NS(=O)(=O)c2ccc3[nH]c4c(c3c2)CCCC4)cc1,327%[activator],6%
O=C(CN1CC=C(c2ccccc2)CC1)N(C1CCCC1)C1CCS(=O)(=O)C1 (stereo not drawn),-7%,-4%
N#Cc1ccc(Nc2nc(CN3CCOCC3)nc3sc4c(c23)CCCC4)cc1,-8%,6%
O=C(CCc1cn(Cc2ccccc2Cl)c2ccccc12)NC1CCCCC1,1%,-20%
CC(C)CNC(=O)c1ccc2c(c1)CCCN2C(=O)c1cccc(Cl)c1,13%,20%
CCCS(=O)(=O)N1CCC(n2c(C(F)(F)F)nc3cccnc32)CC1,25%,34%[activator]
Cc1cc(C)c(NC(=O)Cn2c(=O)n(Cc3ccccc3)c(=O)c3c(C)c(C(=O)N(C)C)sc32)c(C)c1,-4%,-9%
CC(C(=O)NCc1ccccn1)n1nc(-c2ccccc2)c2ccccc21 (stereo not drawn),-3%,-6%
COc1cc2c(cc1C=O)OCCCO2,-12%,3%
CCOc1ccc(OC(=O)c2sc3ncn(Cc4cccc(F)c4)c(=O)c3c2C)cc1,-8%,-8%
COc1ccc(-c2noc(-c3ccc(N4CCCC4)c([N+](=O)[O-])c3)n2)cc1OC,-7%,-10%
CC(C)(C)OC(=O)N1CCN(C(C(=O)O)c2c[nH]c3cc(Cl)ccc23)CC1 (stereo not drawn),-18%,-10%
CC1CCN(CCNC2CCCC2)CC1,-6%,0%
CCc1ccc(CNC(=O)c2cnc3sc(N(CC)CC)nn3c2=O)cc1,15%,-8%
O=C(CCc1ncc(-c2ccccc2)o1)NCCc1ccc(F)cc1,13%,0%
CC(=O)Nc1cccc(NC(=O)c2cc3ccccc3n2C)c1,-11%,69%[activator]
Cc1ccc(C(=O)Nc2ccccc2C(=O)O)cc1S(=O)(=O)N1CCCCCC1,232%[activator],250%[activator]
COc1cc(C(=O)NCC(c2ccco2)S(=O)(=O)c2ccccc2)cc(OC)c1OC (stereo not drawn),34%&-2%[activator],17%&-22%
CCCCn1nc(NC(=O)c2cccc(Cl)c2)c2cc3cccc(C)c3nc21,35%[activator],30%[activator]
COc1ccc(C(=O)O)cc1S(=O)(=O)Nc1cc(Cl)ccc1Cl,16%,1%
CC(C)CC(=O)Nc1cc2c(cc1Sc1ccccc1Cl)n(C)c(=O)n2C,209%[activator],42%
CCOc1ccccc1CNC(=O)c1ccc(-c2nc(CSc3ccc(C)cc3)c(C)o2)cc1,-9%,-10%
COc1ccc2cc(-c3nc(Cl)c4c5c(sc4n3)CCCC5)c(=O)oc2c1,-5%,-14%
N#Cc1c(SCC(=O)Nc2ccccc2)nc(N2CCCC2)c2c1CCCC2,7%,1%
Cc1nc2cc(NC(C)C(=O)Nc3ccc(C(N)=O)cc3)ccc2o1 (stereo not drawn),0%,18%
O=c1c(-c2ccccc2)nnc2sc(-c3ccccc3Br)nn12,8%,190%[activator]
Oc1ccc2ccccc2c1C=Nc1cc(Cl)cc(Cl)c1,-11%,0%
Cc1cc(C)cc(OCC(=O)Nc2ccc(S(=O)(=O)Nc3onc(C)c3C)cc2)c1,-11%,-9%
Cc1cccc(-c2nc(C#N)c(NCCc3ccccc3)o2)c1,0%,137%[activator]
COc1ccc(CCNC(=O)Cn2cc(S(=O)(=O)Cc3cccc(Cl)c3)c3ccccc32)cc1OC,-5%,12%
O=C(Nc1ccc(OC(F)(F)F)cc1)C1CCN(S(=O)(=O)c2cccs2)CC1,?,?
COc1ccc(S(=O)(=O)c2c(Nc3c(C)cccc3C)sc(C(=O)c3ccc(F)cc3)c2N)cc1,73%[activator],-16%
CCOCCCNCc1cccc(C)c1,-1%,-5%
CCN(C(=O)c1cc2c(s1)-c1ccccc1OC2)c1cccc(C(F)(F)F)c1,-9%,-3%
O=C(Cn1nc(Cc2cccnc2)c2ccccc2c1=O)Nc1cc(F)ccc1F,4%,8%
Cc1ccccc1-c1nnc(NC(=O)Nc2ccccc2)s1,2%,168%[activator]
CCOC(=O)CN(Cc1cccs1)C1CC1,-1%,-11%
CCOc1cc(C#N)ccc1OC(=O)c1ccccc1,8%,6%
CN(C)c1ccc(Nc2nc3ccccc3nc2NS(=O)(=O)c2cccs2)cc1,1%,25%
CCC(C)NC(=O)C(=O)N1CCN(c2nc(C)c3c(c2C#N)CCCC3)CC1 (stereo not drawn),?,?
O=C(Nc1ccc(OCc2ccccc2)cc1)C(Sc1ccccc1)c1ccccc1 (stereo not drawn),3%,17%
O=C(c1cn(CCOc2ccccc2)c2ccccc12)C1CC1,38%[activator],236%[activator]
O=C(Cc1ccc(Cl)cc1)N1CCN(c2ccccc2O)CC1,-1%,84%[activator]
Cn1c(CN2CCOCC2)nnc1SCc1cccc(F)c1,-7%,5%
CCCN1CCN(c2ncnc3sc(C(=O)Nc4ccc(OC(F)(F)F)cc4)c(C)c23)CC1,-4%,13%
Cc1ccc(NC(=O)C(C)Nc2ccc3oc(C)nc3c2)c(C)c1 (stereo not drawn),25%,11%
Cc1cc(C)cc(NC(=O)C2CCN(S(=O)(=O)c3cccc4nonc34)CC2)c1,7%,-6%
O=C(Cn1c(=O)n(Cc2ccc(C(=O)NCc3ccc4c(c3)OCO4)cc2)c(=O)c2ccccc21)Nc1cccc(Cl)c1,1%,2%
COc1ccc(N(Cc2cccs2)C(=O)c2ccc(C(C)(C)C)cc2)cc1,143%[activator],27%
COc1ccc(CNC(=O)c2nc(-c3ccccc3)oc2C)cc1OC,18µM*,?
CCCN(C)c1ccc(/C=N/NC(=S)Nc2cccc(SC)c2)cc1,36%[activator],22%
CCCCOC(=O)c1ccc(NC(=O)c2cc(=O)c3ccc(C)c(C)c3o2)cc1,11%,0%
O=C(O)C(Cc1ccccc1)NC(=O)C12CC3CC(CC(C3)C1)C2 (stereo not drawn),4%,1%
Cc1cc(C)cc(Nc2cc(C(=O)NCCCN(Cc3ccccc3)C(C)C)c3ccccc3n2)c1,-21%,-13%

# In another format: entries from further up
Molecule	StopGo RLuc	StopGo FLuc
Cc1ccc(NC(=O)C(C)Nc2ccc3oc(C)nc3c2)c(C)c1 (stereo not drawn)	25%	11%
Cc1cc(C)cc(NC(=O)C2CCN(S(=O)(=O)c3cccc4nonc34)CC2)c1	7%	-6%
O=C(Cn1c(=O)n(Cc2ccc(C(=O)NCc3ccc4c(c3)OCO4)cc2)c(=O)c2ccccc21)Nc1cccc(Cl)c1	1%	2%
COc1ccc(N(Cc2cccs2)C(=O)c2ccc(C(C)(C)C)cc2)cc1	143%[activator]	27%
COc1ccc(CNC(=O)c2nc(-c3ccccc3)oc2C)cc1OC	18µM*	?
CCCN(C)c1ccc(/C=N/NC(=S)Nc2cccc(SC)c2)cc1	36%[activator]	22%

# Following part
SMILES,StopGo RLuc,StopGo FLuc
Cc1[nH]c2ccccc2c1C(=O)C(N)=O,-2%,-5%
COCCn1nc(C(=O)NCC(c2ccc(OC)cc2)N2CCCC2)ccc1=O (stereo not drawn),-6%,-4%
CC(C)CC(=O)NCCC1=CCCCC1,-1%,0%
O=C1NC(C(=O)O)=CC(c2cc(Cl)ccc2Cl)N1 (stereo not drawn),-14%,-7%
CCOC(=O)CN1C(=O)C2(CC(=O)Nc3[nH]ncc32)c2ccccc21 (stereo not drawn),-2%,0%
COc1ccc(OC)c(NC(=O)c2c(C)oc3ncnc(N4CCOCC4)c23)c1,6%,-11%
N#CC1(NC(=O)CSc2nc(-c3cccs3)nc3ccccc23)CCCCC1,7%,9%
CN(CC(=O)N(C)C1CCCCCC1)c1ncnc2nc[nH]c12,-18%,-7%
CCOc1cc(/C=C/C(=O)c2ccc(C)cc2)cc(Br)c1O,-6%,7%
COc1ccc(NC(=O)Cc2ccc3c(c2)OCCO3)cn1,-8%,48%[activator]
O=C(c1ccc(Br)o1)N1CCCc2ccccc21,3%,77%[activator]
Cc1ccc(CN(C(=S)NCC(=O)O)C2CCCCC2)cc1,18%,8%
O=C(CC(c1ccc(Cl)cc1)S(=O)(=O)c1ccccc1)c1ccc(F)cc1 (stereo not drawn),11%,17%
COc1cccc(C(=O)Nc2cc(-c3cn4cccnc4n3)ccc2C)c1OC,-5%,-4%
N#Cc1ccc(Oc2ccccc2Oc2ccc(C#N)c(C#N)c2)cc1C#N,15%,23%
CCOc1cccc(CNCCc2ccc(OC)cc2)c1,-2%,7%
Cc1ccc(C(=O)NCCSc2c(C)[nH]c3ccccc23)cc1,-3%,-18%
O=S(=O)(c1ccc(Cl)cc1)N1CCN(C/C=C/c2ccccc2)CC1,7%,5%
Cc1ccc(Cl)cc1NC(=O)C(C)n1nnc2sc(-c3ccccc3)cc2c1=O (stereo not drawn),-10%,-18%
Cc1ccc2c(=O)cc(C(=O)Nc3sc4c(c3C(=O)NCC3CCCO3)CCC4)oc2c1 (stereo not drawn),-5%,-20%
COCCCNC(=O)CCc1ncc(-c2ccc(F)cc2F)o1,-2%,41%[activator]
C/C(CC(C)(C)c1ccccc1)=N\NC(=O)CCSc1ccccc1,-1%,30%[activator]
Cc1cc(Nc2cccc(Cl)c2)nc2ccc(NC(=O)COc3ccc(Cl)cc3)cc12,-13%,-17%
CN(CC(=O)Nc1c(Cl)cccc1Cl)C(=O)c1ccc(S(=O)(=O)Nc2ccccc2)cc1,62%[activator],-1%
COc1ccc(NC(=O)Cn2c(=O)n(Cc3ccccc3)c(=O)c3sc4ccccc4c32)cc1,25%,37%[activator]
COc1ccc(C)cc1-n1nnnc1SCc1nc(CC(C)C)no1,25%,-16%
Cc1ccc(C(=O)N2CC=C(c3c[nH]c4ccccc34)CC2)cc1,-25%,0%
CCSc1nc(N2CCNCC2)c2sc3c(c2n1)COC(C)(C)C3,-23%,-8%
COCCCNC(=O)c1ccc(Cn2c(=O)c3ccccc3n(CC(N)=O)c2=O)cc1,7%,-5%
O=C(NCc1ccc2c(c1)OCO2)c1ccc(NC(=O)c2nsc3ccccc23)cc1,96%[activator],-10%
COc1ccc(S(=O)(=O)n2nc(C)c(S(=O)(=O)N3CCCCCC3)c2C)cc1OC,-6%,4%
CCC(CC)C(CNc1ccc2nnnn2n1)N1CCCC1 (stereo not drawn),-3%,14%
COc1ccc(OC)c(CCNC(=O)Cn2ccc3cc(S(=O)(=O)N4CCCCC4)ccc32)c1,40%[activator],?
CCOc1ccc(C(=O)Nc2cccc3cccnc23)cc1Cl,-14%,-7%
O=Cc1c(Cl)[nH]c2ccccc12,-13%,-11%
CC(C)c1ccc(-c2nonc2NC(=O)c2cc(=O)c3cc(Cl)ccc3o2)cc1,-7%,-3%
COc1ccc(CCNC(=O)COc2ccc3ccc(=O)oc3c2)cc1,0%,0%
Cc1ccc(C)c(NC(=O)c2n[nH]c(=O)c3ccccc23)c1,-3%,8%
COc1cccc(-c2c(NC(=O)c3ccc(C)cc3)oc3ccccc3c2=O)c1,11%,1%
COc1ccc(OC)c(C(=O)CC2(O)C(=O)N(C)c3ccc(Br)cc32)c1 (stereo not drawn),10%,-9%

# Copied from the list:
# Entry of `COc1ccc(CCNC(=O)COc2ccc3ccc(=O)oc3c2)cc1` in StopGo RLuc: 0%
# Entry of `CC(C)c1ccc(-c2nonc2NC(=O)c2cc(=O)c3cc(Cl)ccc3o2)cc1` in StopGo RLuc: -7%
# Entry of `CCSc1nc(N2CCNCC2)c2sc3c(c2n1)COC(C)(C)C3` in StopGo FLuc: -8%

# Next part
SMILES,StopGo RLuc,StopGo FLuc
Cc1c(C(=O)N(C)c2ccccc2)sc2nc(-c3ccc(F)cc3)cn12,-27%,34%[activator]
CCOc1ccccc1NC(=O)c1cc(-c2ccccn2)nc2ccccc12,21%,25%
CC(Sc1nc(=O)cc(N)n1CCc1ccccc1)C(=O)Nc1ccccc1C#N (stereo not drawn),-7%,25%
O=C(c1cccc(S(=O)(=O)Nc2ccccc2F)c1)N1CCc2sccc2C1,95%[activator],0%
O=C(Nc1ccc(-n2nncc2-c2ccccc2)cc1)c1cccc(F)c1,-5%,-14%
COc1ccc(-n2c(=O)c3c(c4cc(OC)ccc4n3C)n(Cc3c(F)cccc3Cl)c2=O)cc1,-6%,-10%

# Entries listed so far with a cyano group, in the order listed:
SMILES,StopGo RLuc,StopGo FLuc
N#Cc1ccc(Nc2nc(CN3CCOCC3)nc3sc4c(c23)CCCC4)cc1,-8%,6%
N#Cc1c(SCC(=O)Nc2ccccc2)nc(N2CCCC2)c2c1CCCC2,7%,1%
Cc1cccc(-c2nc(C#N)c(NCCc3ccccc3)o2)c1,0%,137%[activator]
CCOc1cc(C#N)ccc1OC(=O)c1ccccc1,8%,6%
CCC(C)NC(=O)C(=O)N1CCN(c2nc(C)c3c(c2C#N)CCCC3)CC1 (stereo not drawn),?,?
N#CC1(NC(=O)CSc2nc(-c3cccs3)nc3ccccc23)CCCCC1,7%,9%
N#Cc1ccc(Oc2ccccc2Oc2ccc(C#N)c(C#N)c2)cc1C#N,15%,23%
CC(Sc1nc(=O)cc(N)n1CCc1ccccc1)C(=O)Nc1ccccc1C#N (stereo not drawn),-7%,25%
